Bioassay records from PubChem.
Yeast UUG start: yeast start codon fidelity modulation; activity score, % at 18.7 µM; 0.13% of 350,000 active; AID 602363; S. cerevisiae UUG-firefly luciferase reporter, luminescence/redox ratio;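 active = replicate mean at a twofold rise or more, about +100% in these data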;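 also: firefly luciferase made from a UUG start codon reports start codon fidelity; reporter light over untreated wells divided by growth signal over untreated wells; some hits fall short of that in this replicate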
HIV Env fusion: inhibitors of HIV Env-mediated cell fusion. HeLa-JRFL Env/CEM21 cell fusion, luciferase. inhibition, % at 12.3 µM. 1.1% of 360,000 active. AID 651610;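 active = mean replicate inhibition score of at least 50 and every replicate individually at or above 50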;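 also: 0% = plate neutral controls and 100% = maraviroc near 300 nM; one replicate is shown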
An asterisk follows results filed as active; [ ] = another dose, or the depositor's remark. These rows are one share of the data; count on the stated rates, not on these rows.

Below each compound – Yeast UUG start | HIV Env fusion
CC(C)NC(=O)Nc1ccc2c(c1)CC(=O)N([C@H](C)CO)C[C@H](C)[C@H](CN(C)Cc1ccccc1)O2
  2 | 16[16.7 µM]
C[C@H]1CN([C@@H](C)CO)C(=O)c2cccc(NS(=O)(=O)c3cn(C)cn3)c2O[C@H]1CN(C)S(=O)(=O)c1cn(C)cn1
  -4 | 13[16.7 µM]
CC(=O)N(C)C[C@@H]1Oc2cc(-c3ccccc3C)ccc2S(=O)(=O)N([C@H](C)CO)C[C@H]1C
  14 | -22[16.7 µM]
C[C@@H]1CN([C@@H](C)CO)C(=O)c2cc(/C=C/c3ccccc3)cnc2O[C@H]1CN(C)S(=O)(=O)c1ccccc1F
  11 | 24[16.7 µM]
COc1cccc(NC(=O)N(C)C[C@@H]2Oc3ncc(C#Cc4cccnc4)cc3C(=O)N([C@@H](C)CO)C[C@@H]2C)c1
  -4 | 17[16.7 µM]
Cc1noc(C)c1S(=O)(=O)Nc1cccc2c1O[C@@H](CN(C)S(=O)(=O)c1ccc(F)cc1)[C@@H](C)CN([C@H](C)CO)C2=O
  -3 | 16[16.7 µM]
O=C(C[C@H]1C=C[C@H](NC(=O)CCN2CCCCC2)[C@H](CO)O1)Nc1nccs1
  -4 | 4[16.7 µM]
CC(C)CC#Cc1ccc2c(c1)O[C@H](CN(C)C(=O)Nc1ccccc1)[C@@H](C)CN([C@@H](C)CO)S2(=O)=O
  5 | -46[16.7 µM]
O=C(C[C@@H]1CC[C@@H](NS(=O)(=O)c2cccc(F)c2)[C@H](CO)O1)NCc1ccc2c(c1)OCO2
  -4 | -17[16.7 µM]
C[C@H](CO)N1C[C@H](C)[C@@H](CN(C)S(C)(=O)=O)Oc2ccc(NS(=O)(=O)c3ccc(F)cc3)cc2C1=O
  -2 | 8[16.7 µM]
COc1cccc(NC(=O)C[C@H]2CC[C@@H]3[C@@H](COc4ccc(NC(=O)C5CC5)cc4C(=O)N3C)O2)c1
  7 | 1[16.7 µM]
C[C@H](CO)N1C[C@H](C)[C@@H](CN(C)CC2CCCCC2)Oc2c(NC(=O)c3cnccn3)cccc2C1=O
  -6 | 4[16.7 µM]
COc1ccc(CN2C[C@@H](O)COC[C@H]3O[C@H](CC(=O)NCc4ccccc4Cl)CC[C@@H]32)cc1
  -13 | 18[16.7 µM]
CCCN(C)C[C@H]1Oc2cc(-c3cccc(OC)c3)ccc2S(=O)(=O)N([C@@H](C)CO)C[C@H]1C
  -14 | -10[16.7 µM]
COc1cccc(-c2ccc3c(c2)O[C@H](CN(C)C(=O)C2CC2)[C@@H](C)CN([C@H](C)CO)S3(=O)=O)c1
  10 | -4[16.7 µM]
CN1C(=O)c2cc(NC(=O)NC3CCCC3)ccc2OC[C@H]2O[C@H](CC(=O)NC3CCC3)CC[C@@H]21
  -4 | -4[16.7 µM]
C[C@@H]1CN([C@H](C)CO)C(=O)c2cc(NC(=O)Nc3cccc4ccccc34)ccc2O[C@@H](C)CCCCO[C@@H]1CN(C)Cc1ccc(C(=O)O)cc1
  1 | -9[16.7 µM]
CN1C(=O)c2cc(NC(=O)Nc3cccc(Cl)c3)ccc2OC[C@H]2O[C@@H](CC(=O)O)CC[C@H]21
  19 | 11[16.7 µM]
C[C@H](CO)N1C[C@H](C)[C@@H](CN(C)Cc2ccc(Cl)c(Cl)c2)Oc2ccc(NC(=O)NC3CCCCC3)cc2CC1=O
  -2 | 10[16.7 µM]
C[C@@H]1CCCCO[C@H](CN(C)C(=O)Nc2ccc3c(c2)OCO3)[C@@H](C)CN([C@H](C)CO)C(=O)c2cc(NC(=O)Nc3ccc4c(c3)OCO4)ccc2O1
  10 | 2[16.7 µM]

Record cards (already shown). Order of screens: Yeast UUG start | HIV Env fusion
Listed for `C[C@@H]1CN([C@H](C)CO)C(=O)c2cc(NC(=O)Nc3cccc4ccccc34)ccc2O[C@@H](C)CCCCO[C@@H]1CN(C)Cc1ccc(C(=O)O)cc1` → 1 | -9[16.7 µM]
Listed for `CC(=O)N(C)C[C@@H]1Oc2cc(-c3ccccc3C)ccc2S(=O)(=O)N([C@H](C)CO)C[C@H]1C` → 14 | -22[16.7 µM]
Listed for `Cc1noc(C)c1S(=O)(=O)Nc1cccc2c1O[C@@H](CN(C)S(=O)(=O)c1ccc(F)cc1)[C@@H](C)CN([C@H](C)CO)C2=O` → -3 | 16[16.7 µM]

Remaining list, next part
Below each compound – Yeast UUG start | HIV Env fusion
C[C@@H]1CN([C@@H](C)CO)C(=O)c2cc(-c3ccccc3F)cnc2O[C@@H]1CN(C)Cc1ccc(F)cc1
  -11 | 24[16.7 µM]
CC(C)NC(=O)N(C)C[C@H]1Oc2cc(Br)ccc2S(=O)(=O)N([C@H](C)CO)C[C@@H]1C
  2 | -13[16.7 µM]
C[C@H](CO)N1C[C@H](C)[C@H](CN(C)C(=O)NC2CCCCC2)OCCCC[C@H](C)Oc2ccc(NC(=O)CCCN(C)C)cc2C1=O
  21 | -15[16.7 µM]
COc1ccc(NC(=O)N(C)C[C@H]2Oc3ccc(NC(=O)Nc4ccc(F)cc4)cc3CC(=O)N([C@H](C)CO)C[C@@H]2C)cc1
  26 | 7[16.7 µM]
CCC(=O)N(C)C[C@@H]1Oc2ncc(C#Cc3ccc(OC)cc3)cc2C(=O)N([C@H](C)CO)C[C@H]1C
  -7 | 24[16.7 µM]
O=C(Nc1cc(Cl)cc(Cl)c1)N[C@H]1CC[C@@H](CCNS(=O)(=O)c2cccc(F)c2)O[C@H]1CO
  0 | 0[16.7 µM]
Cc1noc(C)c1S(=O)(=O)N(C)C[C@@H]1OCCCC[C@H](C)Oc2ccc(NC(=O)Nc3ccc(C(F)(F)F)cc3)cc2C(=O)N([C@H](C)CO)C[C@H]1C
  -15 | 70*[16.7 µM]
C[C@H](CO)N1C[C@H](C)[C@H](CN(C)Cc2ccccc2)OCCCC[C@H](C)Oc2ccc(NC(=O)Nc3ccc(C(F)(F)F)cc3)cc2C1=O
  11 | 66*[16.7 µM]
COCC#Cc1ccc2c(c1)O[C@H](CN(C)C(=O)C1CCOCC1)[C@@H](C)CN([C@@H](C)CO)S2(=O)=O
  7 | -8[16.7 µM]
CC(C)NC(=O)Nc1ccc2c(c1)C(=O)N([C@H](C)CO)C[C@@H](C)[C@H](CN(C)C(=O)Nc1ccc(F)cc1)OCCCC[C@@H](C)O2
  7 | 10[16.7 µM]
Cc1noc(C)c1S(=O)(=O)Nc1ccc2c(c1)CC(=O)N([C@@H](C)CO)C[C@H](C)[C@@H](CN(C)CC1CC1)O2
  -4 | -19[16.7 µM]
COCC#Cc1ccc2c(c1)O[C@H](CN(C)S(=O)(=O)c1ccc(C)cc1)[C@H](C)CN([C@@H](C)CO)S2(=O)=O
  1 | 16[16.7 µM]
C[C@@H]1CN([C@H](C)CO)C(=O)Cc2cc(NS(=O)(=O)c3cccs3)ccc2O[C@@H]1CN(C)Cc1ccc(C(=O)O)cc1
  -5 | -9[16.7 µM]
COc1ccccc1CNC(=O)C[C@@H]1C[C@H]2c3cc(NS(C)(=O)=O)ccc3O[C@H]2[C@@H](CO)O1
  -13 | -17[16.7 µM]
O=C(NCC[C@@H]1CC[C@@H](NC(=O)C2CCC2)[C@H](CO)O1)Nc1ccc(Cl)cc1
  28 | 13[16.7 µM]
CC(C)CC#Cc1cnc2c(c1)C(=O)N([C@H](C)CO)C[C@H](C)[C@H](CN(C)CC1CCOCC1)O2
  -5 | -12[16.7 µM]
COc1ccc(NC(=O)Nc2cccc3c2O[C@@H](CN(C)S(=O)(=O)c2ccc(OC)cc2)[C@H](C)CN([C@H](C)CO)C3=O)cc1
  8 | -30[16.7 µM]
C[C@@H]1CN([C@@H](C)CO)C(=O)c2cc(NC(=O)CCC(F)(F)F)ccc2O[C@@H]1CN(C)Cc1ccc(Oc2ccccc2)cc1
  9 | 7[16.7 µM]
O=C(Nc1ccc(Cl)c(Cl)c1)N[C@@H]1CC[C@H](CCn2cc(C3CCCCC3)nn2)O[C@H]1CO
  -4 | 37[16.7 µM]
Cc1ccc(S(=O)(=O)N(C)C[C@H]2OCCCC[C@H](C)Oc3ccc(NC(=O)Nc4ccc(F)cc4)cc3C(=O)N([C@H](C)CO)C[C@H]2C)cc1
  -13 | 15[16.7 µM]

(continued)
SMILES | Yeast UUG start | HIV Env fusion
C[C@@H]1CCCCO[C@H](CN(C)C(=O)Cc2ccccc2)[C@@H](C)CN([C@H](C)CO)C(=O)c2cc(NC(=O)Cc3ccccc3)ccc2O1 | -9 | -16[16.7 µM]
C[C@@H]1CN([C@H](C)CO)C(=O)c2cc(NS(=O)(=O)c3ccccc3)ccc2O[C@@H](C)CCCCO[C@@H]1CN(C)S(=O)(=O)c1ccc(Cl)cc1 | -15 | -27[16.7 µM]
O=C(Nc1ccccc1F)N[C@H]1CC[C@@H](CCNC(=O)C2CC2)O[C@@H]1CO | -11 | -10[16.7 µM]
O=C(C[C@@H]1C=C[C@H](NC(=O)C2CC2)[C@H](CO)O1)NCc1ccccc1Cl | -3 | 0[16.7 µM]
CCC(=O)N(C)C[C@H]1Oc2cc(C#C[C@H](C)O)ccc2S(=O)(=O)N([C@@H](C)CO)C[C@H]1C | 18 | 3[16.7 µM]
C[C@H](CO)N1C[C@H](C)[C@H](CN(C)S(=O)(=O)c2ccc(Cl)cc2)Oc2c(NC(=O)c3nc4ccccc4s3)cccc2C1=O | 1 | -3[16.7 µM]
CNC[C@@H]1OCCCC[C@@H](C)Oc2ccc(NC(=O)Cc3ccccc3)cc2C(=O)N([C@@H](C)CO)C[C@H]1C | 15 | -15[16.7 µM]
CO[C@@H]1CN(C)C(=O)c2ccc(NC(=O)C3CCCC3)cc2OC[C@@H](C)N(CCC(F)(F)F)C[C@H]1C | 9 | 22[16.7 µM]
C[C@H]1CN([C@@H](C)CO)C(=O)Cc2cc(NC(=O)C3CCCCC3)ccc2O[C@@H]1CN(C)S(=O)(=O)c1cccs1 | 0 | 14[16.7 µM]
CC(C)NC(=O)N(C)C[C@H]1OCCCC[C@H](C)Oc2ccc(NS(=O)(=O)c3ccc(Cl)cc3)cc2C(=O)N([C@H](C)CO)C[C@H]1C | 30 | -51[16.7 µM]

Filtered by structure, the compounds so far containing a CF3 group
SMILES | Yeast UUG start | HIV Env fusion
Cc1noc(C)c1S(=O)(=O)N(C)C[C@@H]1OCCCC[C@H](C)Oc2ccc(NC(=O)Nc3ccc(C(F)(F)F)cc3)cc2C(=O)N([C@H](C)CO)C[C@H]1C | -15 | 70*[16.7 µM]
C[C@H](CO)N1C[C@H](C)[C@H](CN(C)Cc2ccccc2)OCCCC[C@H](C)Oc2ccc(NC(=O)Nc3ccc(C(F)(F)F)cc3)cc2C1=O | 11 | 66*[16.7 µM]
C[C@@H]1CN([C@@H](C)CO)C(=O)c2cc(NC(=O)CCC(F)(F)F)ccc2O[C@@H]1CN(C)Cc1ccc(Oc2ccccc2)cc1 | 9 | 7[16.7 µM]
CO[C@@H]1CN(C)C(=O)c2ccc(NC(=O)C3CCCC3)cc2OC[C@@H](C)N(CCC(F)(F)F)C[C@H]1C | 9 | 22[16.7 µM]

Next section
SMILES | Yeast UUG start | HIV Env fusion
C[C@@H]1CN([C@@H](C)CO)C(=O)c2cc(NC(=O)Nc3ccc4c(c3)OCO4)ccc2O[C@@H](C)CCCCO[C@@H]1CN(C)Cc1ccc(C(F)(F)F)cc1 | 7 | 23[16.7 µM]
CNC[C@H]1Oc2ccc(NC(=O)C3CCCCC3)cc2C(=O)N([C@H](C)CO)C[C@@H]1C | 6 | -11[16.7 µM]
COc1ccc(NC(=O)Nc2ccc3c(c2)C(=O)N([C@H](C)CO)C[C@@H](C)[C@@H](CN(C)C(=O)Nc2cccc4ccccc24)O3)cc1 | -2 | 12[16.7 µM]
CCNC(=O)C[C@H]1CC[C@@H]2[C@H](COc3ccc(NC(=O)Nc4c(C)noc4C)cc3C(=O)N2C)O1 | -9 | -7[16.7 µM]
